# Screening data deposited in PubChem BioAssay by several laboratories.
# HNF4A DNA FP: change in binding of human HNF4 alpha to DNA; 0.3% of 360,000 active; HNF4a-FITC DNA binding, fluorescence polarization, 1 h; P41235; activity change, % at 10 µM; in the data active = activity change above about 30%, passing the limit was not always enough;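 note: controls were the assay level and a saturating level of protein; the project sought stronger binding though the title names inhibitors; some compounds called inactive have numbers as strong as hits; positive values seem to mean higher polarization but the record does not say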
# Target sequence (P41235 whole entry, looked up): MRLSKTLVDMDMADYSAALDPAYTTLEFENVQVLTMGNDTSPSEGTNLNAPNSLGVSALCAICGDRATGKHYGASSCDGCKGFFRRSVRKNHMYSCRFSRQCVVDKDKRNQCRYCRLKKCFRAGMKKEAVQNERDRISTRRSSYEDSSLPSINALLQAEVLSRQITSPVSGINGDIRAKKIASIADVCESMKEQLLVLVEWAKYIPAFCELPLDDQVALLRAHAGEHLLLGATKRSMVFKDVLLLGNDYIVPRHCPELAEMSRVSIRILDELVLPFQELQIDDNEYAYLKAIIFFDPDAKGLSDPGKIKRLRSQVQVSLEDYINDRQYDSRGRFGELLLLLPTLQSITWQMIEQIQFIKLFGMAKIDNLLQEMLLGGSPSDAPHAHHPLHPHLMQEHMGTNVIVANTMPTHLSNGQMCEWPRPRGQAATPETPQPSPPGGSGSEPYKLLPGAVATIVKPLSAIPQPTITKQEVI
# Ecoli growth: inhibitors of Escherichia coli growth; OD600, 23 h; active compounds read low; OD600 absorbance (concentration not given with the values); 0.21% of 330,000 active;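 active = OD600 absorbance below the run mean of sample wells minus 3.6 SD, in any replicate, cut at about 0.56 in these data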;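 note: stock transfer was 300 nL into about 60 µL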
# UCH37 inh: human UCH37 deubiquitinating enzyme inhibition. Q9Y5K5. purified proteasome/UCH37, Ub-AMC cleavage fluorescence. inhibition, % (test concentration not listed). 0.33% of 330,000 active;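 active = mean of two replicates above 20%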;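 note: 0% = compound-free wells with enzyme and 100% = wells lacking proteasome; stock transfer was 100 nL into about 20 µL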
# Target sequence (Q9Y5K5 whole entry, looked up): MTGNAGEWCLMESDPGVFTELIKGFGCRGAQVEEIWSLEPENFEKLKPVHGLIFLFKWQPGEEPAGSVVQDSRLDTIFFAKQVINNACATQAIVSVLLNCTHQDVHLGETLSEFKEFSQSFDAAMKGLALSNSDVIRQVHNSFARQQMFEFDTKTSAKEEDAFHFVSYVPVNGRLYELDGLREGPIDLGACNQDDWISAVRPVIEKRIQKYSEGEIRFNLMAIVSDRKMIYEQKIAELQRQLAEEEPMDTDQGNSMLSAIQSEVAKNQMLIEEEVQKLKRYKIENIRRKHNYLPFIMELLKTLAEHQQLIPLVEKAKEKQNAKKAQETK
#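 Material: Human UCH37 enzyme supplied as purified proteasome complex | Schedule: 30 min preincubation with enzyme, 25 min cleavage at room temperature | Detection: AMC fluorescence 355/460 nm | Measure: % inhibition of Ub-AMC cleavage fluorescence | Controls: Wells without proteasome as full block, compound-free enzyme plus substrate as uninhibited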
# Vif TR-FRET: HIV-1 Vif–A3G interaction blockers – biochemical, TR-FRET, GST-Vif 1-94, biotin-A3G peptide, dose response retest, primary screen (AID 1117319). 0.57% of 260,000 active. inhibition, %; hits with a dose series show IC50 in µM. TR-FRET GST-Vif / biotin-A3G peptide binding; higher % means a stronger effect; test concentration not given here; strong numbers were not always called active;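 active = above the screen mean plus three standard deviations and confirmed in dose response; inconclusive = results disagree or hit not tested in dose response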;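 note: Vif residues 1-94 fused to GST binding biotinylated APOBEC3G peptide 110-148; 0% = full assay without inhibitor and 100% = GST in place of GST-Vif; retest series ran down from 100 µM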
# RanGTP-Imp inh: inhibitors of RanGTP-importin-beta interaction, primary screen, biochemical, FRET, CFP-Ran, YFP-importin-beta, homogeneous; AID 2216; inhibition, % (concentration not given with the values); 1.1% of 300,000 active; cell-free CFP-Ran/YFP-importin-beta FRET ratio;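 active = most replicates above 15%; inconclusive = exactly half above 15%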;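 note: 0% = DMSO wells and 100% = Ran loaded with GDP instead of GTP; wells of about 40 µL received 100 nL stock; the first replicate is given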
# AF4-AF9 inh: inhibitors of human MLL-AF4/AF9 interaction. AlphaScreen, biotin-AF4 peptide binding to FLAG-AF9. 0.47% of 350,000 active. inhibition, % at 10 µM. P42568;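 active = every replicate reaching a set inhibition limit, whatever the replicate mean, cut at about 25% in these data; inconclusive = mean inhibition reaches that limit but some replicates miss it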;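 note: 0% = plate neutral control median and 100% = total signal loss; the record names both 10 and 1 µM as test concentration; the first replicate is given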
# FGF22 binding: shifts melting point of recombinant human FGF22; calls only at 9.99 µM; Q9HCT0; recombinant FGF22 thermal shift, SYPRO orange fluorescence; percent of sucrose octasulfate shift, DMSO zero; AID 651658; 1.5% of 340,000 active;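 active = melting point raised past a set limit in the mean and every replicate; inconclusive = no clear call; three in four hits are not shown here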
# Target sequence (Q9HCT0 whole entry, looked up): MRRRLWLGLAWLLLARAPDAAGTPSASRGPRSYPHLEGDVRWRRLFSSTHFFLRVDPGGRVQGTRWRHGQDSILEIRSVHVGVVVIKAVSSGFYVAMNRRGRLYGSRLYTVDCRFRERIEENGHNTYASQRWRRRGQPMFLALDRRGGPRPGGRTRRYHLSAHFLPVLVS
# The depositor's hits bear a star; i = inactive; u = inconclusive; x = no result given. Only part of the results is shown, so the mix of outcomes need not match the whole.
Structure	HNF4A DNA FP	Ecoli growth	UCH37 inh	Vif TR-FRET	RanGTP-Imp inh	AF4-AF9 inh	FGF22 binding
CC(=O)Nc1ccc(C(=O)COC(=O)c2cc(C)oc2C)c(F)c1	6.5	0.645	2.6	x	x	0.4	i
COc1ccc2c(C)c(CC(=O)N3C[C@H]4C[C@@H](C3)c3cccc(=O)n3C4)c(=O)oc2c1OC	0.6	0.72	-69.0	x	2.5	-0.7	i
CC(C)CCNC(=O)c1cn(C)c2ccc(S(=O)(=O)N3CCCC3)cc2c1=O	0.7	0.714	-1.6	-6.2%	-0.4	-2.6	i
O=C1OCCC1Sc1nnc(-c2ccccc2Cl)n1Cc1ccccc1 (centres undefined)	-2.7	0.696	4.9	x	-3.5	2.3	i
COc1ccc(OC)c(/C=N/NC(=O)CCN2CCN(C(c3ccccc3)c3ccccc3)CC2)c1	-4.7	x	x	11.8%	-4.5	x	x
c1cncc(-c2nnc3sc(-c4ccco4)nn23)c1	2.5	0.658	-0.1	28.3µM*	4.6	x	x
Cc1cc(C)n(C(C)CNS(=O)(=O)c2ccc(C)c(C)c2)n1 (centres undefined)	3.7	0.688	1.4	7.0%	0.8	-3.4	i
N#Cc1c[nH]n2c(=O)c3c(nc12)CCCC3	x	0.63	1.1	1.5%	u	x	x
CCNc1nc(C)nc2c1cnn2C	5.1	0.689	0.7	-8.4%	x	-11.6	i
CC(C)C(=O)NC(C)C(c1cccs1)N1CCOCC1 (centres undefined)	0.6	0.673	1.4	0.7%	0.6	-4.7	i
C=CC[C@@H](CC(=O)N(CCO)Cc1ccccc1)C(=O)N[C@@H](COC(=O)[C@H](CC=C)CC(=O)OC(C)(C)C)Cc1c[nH]c2ccccc12	5.1	x	3.1	x	x	-45.8	i
CC1(Cc2ccccc2OC(F)(F)F)C(=O)Nc2ccc(-c3ccsc3)cc21 (centres undefined)	-0.2	x	x	x	x	-9.2	i

# Next section.
Structure	HNF4A DNA FP	Ecoli growth	UCH37 inh	Vif TR-FRET	RanGTP-Imp inh	AF4-AF9 inh	FGF22 binding
COc1ccc(S(=O)(=O)N2CCOC2CNC(=O)C(=O)NCCc2ccccc2)cc1OC (centres undefined)	0.4	0.786	2.8	x	3.8	6.2	i
CC(=O)c1c(C)[nH]c(C(=O)N(C)C(c2ccccc2)c2ccccc2)c1C	2.6	0.696	-1.7	-5.6%	-0.2	-6.1	x
CN(Cc1c(C(=O)N/N=C/c2cccs2)nnn1-c1nonc1N)c1ccccc1	-0.6	x	x	x	-2.3	0.9	i
COc1ccccc1OCC(=O)NCC1CCCN(Cc2cnn(C)c2C)C1 (centres undefined)	-0.5	0.675	2.2	u	-1.2	-0.3	i
CCOC(=O)c1c(C)[nH]c(C(=O)N2CCCC(C(=O)c3ccccc3OC)C2)c1C (centres undefined)	-1.5	0.677	3.2	u	3.4	7.2	i
O=C(O)C1C2CCC(C2)C1C(=O)Nc1cccc([N+](=O)[O-])c1 (centres undefined)	1.3	0.688	2.4	4.1%	-2.2	-1.1	i
Cc1c(CCOC(=O)c2cc([N+](=O)[O-])ccc2Cl)sc[n+]1CCCCS(=O)(=O)[O-]	-2.9	0.662	-1.1	x	-0.3	-1.9	i
CC(C)(CNC(=O)CO/N=C1/C=C2CCC3C(C(O)C[C@@]4(C)C3CC[C@]4(O)C(=O)CO)[C@@]2(C)CC1)C(O)C(=O)O (some centres undefined)	-0.9	x	x	-7.2%	6.8	0.9	i
CC1(C(=O)Nc2cccc3c2CCCC3)CCN1C(=O)C1(c2ccccc2)CC1 (centres undefined)	6.5	x	x	x	x	-1.8	i
COc1ccc(CNC(=O)C2CCN(S(=O)(=O)c3cccc4cccnc34)CC2)cc1	-3.6	0.689	4.4	27.6%	-2.6	0.5	i
CCOc1cc(/C=N/NC(=O)CCCC(=O)NC2CCCCC2)ccc1O	1.7	x	x	-9.7%	u	-1.6	i
Cc1cccc(NC(=O)c2ccco2)c1C	-1.0	0.651	3.8	x	6.8	1.3	i

# Later entries:
Structure	HNF4A DNA FP	Ecoli growth	UCH37 inh	Vif TR-FRET	RanGTP-Imp inh	AF4-AF9 inh	FGF22 binding
Cc1ccccc1C1CC(c2ccccc2OC(F)F)Nc2ncnn21 (centres undefined)	-0.9	0.709	0.9	-0.6%	-0.4	x	x
O=C(CCS(=O)(=O)c1ccccc1)NC1CCCC1	0.9	0.705	4.4	-1.4%	-3.1	0.2	i
O=C(Cn1cnc2ccccc2c1=O)Nc1ccc(-c2nnc3n2CCCCC3)cc1	1.1	0.677	2.7	-1.4%	1.0	x	x
CCCCN(C)c1c(C)nc2ccc(C(=O)NCCCn3ccnc3)cn12	1.9	x	x	x	x	-1.0	i
NC(=O)CSc1nnc(C2CC2)n1Cc1ccccc1	0.7	0.742	1.6	8.0%	0.0	x	x
NC(=Nc1ccccc1)N(c1ccccc1)c1ccccc1	0.2	0.665	1.3	1.6%	x	-3.0	i
Cc1cc(C(=O)COC(=O)CN=C2NS(=O)(=O)c3ccccc32)c(C)n1CCc1ccc(Cl)cc1	1.2	0.685	2.4	-4.5%	0.1	2.9	i
CCOC(=O)c1nn(-c2cc(C(=O)OC)cc(C(=O)OC)c2)cc1O	2.5	0.702	0.7	18.4%	1.9	x	x
O=C(NCCN1CCN(Cc2ccccc2)CC1)c1ccc(CS(=O)(=O)c2ccc(Br)cc2)o1	-0.4	0.671	0.3	x	1.4	3.3	i
COc1ccc([N+](=O)[O-])cc1NC(=O)CC1SC(=Nc2cccc(C)c2C)N(/N=C(\C)c2ccc(C)cc2)C1=O (centres undefined)	7.8	x	x	15.2%	u	0.7	i
Cc1ccc(OCC(=O)N(C)Cc2ccccc2)c([N+](=O)[O-])n1	1.1	x	x	x	0.6	-1.3	i
COC(=O)C1CCN(C(=O)[C@H](C)NC(=O)C2CC(=O)N(c3ccc(F)cc3)C2)CC1 (some centres undefined)	4.4	0.71	3.1	-8.7%	0.1	-1.5	i

# Going on with the list:
Structure	HNF4A DNA FP	Ecoli growth	UCH37 inh	Vif TR-FRET	RanGTP-Imp inh	AF4-AF9 inh	FGF22 binding
O=C(NNC1CC(=O)N(c2ccccc2)C1=O)c1ccccc1Cl (centres undefined)	5.2	0.654	2.6	-1.9%	1.0	0.5	i
O=C1CCC(C(=O)N2CCCC(C(=O)c3ccc4ccccc4c3)C2)=NN1 (centres undefined)	1.1	0.714	-16.4	1.5%	-1.1	3.6	i
Cc1cccc(S(=O)(=O)NC(=O)C2(C)CCN2C(=O)c2ccccc2)c1 (centres undefined)	2.3	x	x	x	x	2.0	i
O=C(C(c1ccccc1)c1ccccc1)N1CCN(CC(O)COc2ccccc2)CC1 (centres undefined)	-1.3	0.68	2.1	-4.0%	0.0	x	x
COC(=O)C1CSC(C(=O)OC)N1C(=O)CN1CCN(c2ccc(OC)cc2)CC1 (centres undefined)	1.5	0.706	5.2	x	u	1.0	i
CCN(CC(=O)Nc1ccc(OC(F)F)cc1)C1CCCCC1	-0.9	0.705	3.8	x	1.6	0.9	i
COc1ccc(C=O)cc1CSc1ccccn1	2.8	0.696	4.8	30.9%	-0.8	-2.9	i
COc1cccc(-c2cccc(NC(=O)C3CCN(C4CCOCC4)CC3)c2)c1	-0.6	0.704	1.5	x	1.2	0.8	i
CN(CCc1cn[nH]c1)C(=O)CC1C(=O)NCCN1Cc1cccc(Oc2ccccc2)c1 (centres undefined)	0.1	0.728	-3.4	-16.1%	1.4	0.3	i
COc1ccc(C(=O)Nc2cccc([N+](=O)[O-])c2)cc1Br	-2.5	0.775	1.4	-0.9%	0.6	x	x
S=C(NCCCc1cnc[nH]1)NCCCN(Cc1ccc(Cl)c(Cl)c1)c1ccc(Br)cn1	-3.3	x	x	x	x	8.1	i
CCNC(=O)NC(=O)C(C)Oc1ccc(Br)cc1Br (centres undefined)	-0.9	0.684	1.6	3.7%	0.8	-1.2	x

# Next part:
Structure	HNF4A DNA FP	Ecoli growth	UCH37 inh	Vif TR-FRET	RanGTP-Imp inh	AF4-AF9 inh	FGF22 binding
CCCCCCN[C@H]1CCC2C3CC=C4C[C@@H](O)CC[C@]4(C)C3CC[C@@]21C (some centres undefined)	-0.9	0.692	3.6	-1.2%	x	3.3	i
CCOc1cccc(C(=O)Nc2ccc(S(=O)(=O)Nc3cc(C)on3)cc2)c1	-2.0	0.713	3.7	x	0.2	-6.8	i
CC1=C(C(=O)Nc2ccccc2)C(c2ccco2)NC(=O)N1 (centres undefined)	-4.6	0.705	0.1	-0.3%	4.3	x	x
Cc1cc(C(=O)NCc2cc(C(=O)O)co2)co1	-12.2	0.661	4.0	-1.4%	1.5	-1.7	i
CCOc1ccc(S(=O)(=O)NC2=NCCCCC2)cc1	3.8	0.674	2.6	4.5%	x	0.2	i
CC1CCCC(C)N1C(=O)COC(=O)/C=C/c1ccco1 (centres undefined)	-3.3	0.686	4.2	x	x	0.7	i
CC(=O)NC(Cc1ccccc1)c1ccc2c(c1)OCCCO2 (centres undefined)	2.2	0.657	0.5	0.1%	5.5	x	x
CN(C)c1ccc(NC(=O)Cc2ccccc2)c2ccccc12	-1.9	0.674	-73.6	5.9%	-3.0	-0.4	i
CC(C)(C)SC(=O)CC1NS(=O)(=O)OC2CCCCC12 (centres undefined)	-1.2	0.702	-0.7	x	4.0	-2.7	i
COc1cccc(OC)c1C(=O)Nc1cccc(S(=O)(=O)Nc2ccccc2Cl)c1	1.6	0.704	2.7	x	x	-1.8	i
Cn1cc([N+](=O)[O-])c(C(=O)NCc2cc3ccccc3[nH]2)n1	4.9	0.677	1.4	-3.5%	0.7	x	x
Cc1onc(-c2ccccc2Cl)c1C(=O)N1CCC(C(N)=O)CC1	-0.1	0.631	1.3	x	-5.5	-1.8	i

# As entered above:
# UCH37 inh, `CCOc1ccc(S(=O)(=O)NC2=NCCCCC2)cc1` stands at 2.6
# Vif TR-FRET, `CC1=C(C(=O)Nc2ccccc2)C(c2ccco2)NC(=O)N1` (centres undefined) stands at -0.3%

# (next part)
Structure	HNF4A DNA FP	Ecoli growth	UCH37 inh	Vif TR-FRET	RanGTP-Imp inh	AF4-AF9 inh	FGF22 binding
Cc1cc(NC(=O)Cn2nnc3sc4c(c3c2=O)CCC(C(C)(C)C)C4)no1 (centres undefined)	4.8	0.649	-6.5	18.3%	1.7	x	x
O=C(NCC1CCCO1)c1ccc(CNS(=O)(=O)c2cccc(Cl)c2)cc1 (centres undefined)	4.8	0.684	-0.1	0.4%	6.1	-4.8	i
Cc1cccc(-c2nc(C#N)c(NC3CCCCC3)o2)c1	2.3	0.788	-98.7	-14.4%	-2.0	x	x
O=S(=O)(c1ccccc1)N(CC1CO1)c1cc(Cl)ccc1Cl (centres undefined)	1.3	0.691	5.3	0.3%	-1.2	-1.0	i
Cc1cccc(C)c1OCC(O)Cn1c2ccccc2c2ccccc21 (centres undefined)	0.6	0.694	1.0	-5.0%	-1.4	x	x
CC(NC(=O)Cn1c(NCCO)nc2ccccc21)c1ccccc1 (centres undefined)	-2.7	0.789	5.5	-2.3%	-0.1	x	x
CN1CCc2c(sc3c2c(=O)n(-c2ccc(Cl)cc2)c2nncn32)C1	-0.3	0.749	3.4	10.4%	4.4	x	x
COc1cc2[nH]c(=S)n(CC3CCCO3)c(=O)c2cc1OC (centres undefined)	1.7	0.674	9.2	-0.9%	1.2	4.3	i
N#Cc1c(NC(=O)CSc2nc3c(c(C(F)(F)F)n2)CCc2ccccc2-3)sc2c1CCCC2	0.2	0.798	5.5	8.8%	-0.5	x	x
COC(=O)/C=C1\SC(=NC(=O)c2ccc(-c3ccccc3)cc2)NC1=O	-0.9	0.669	3.4	-4.5%	x	-1.5	i
Cn1c(=O)c2c(nc(NC3CCCC3)n2C)n(C)c1=O	0.1	0.675	-2.3	-5.8%	-5.4	-0.8	i
CCCCCc1ccc(-c2ccc(=O)[nH]n2)cc1	0.9	0.65	-1.0	-0.8%	u	x	x
